PINK1 expr mod = A Quantitative High throughput Screen to Identify Chemical Modulators of PINK1 Expression; PINK1 immunofluorescence, high-content cytometry, 24 h; Potency, µM (top dose mostly 76.6 µM), inactives show top-dose activation (PINK1 increase), usual class: activators; 410,000 compounds, 0.2% hits; AID 624263, 2012; active = well fitted activation curve with a large enough effect; inconclusive = small, poorly fitted or top-dose-only effect; inactive = flat fitted curve, though single readings scatter; cell line not stated here;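 also: % of control where 0% means no effect; nearly all actives have a fitted effect of over 65% in size; a mitochondrial uncoupler was the plate control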
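PINK1 protein, normally rapidly degraded, was detected by immunofluorescence after 24 hour compound treatment of a stable cell line. Titration data (5 concentrations) came from laser-scanning cytometry, with CCCP-treated wells as controls.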
The depositor's hits bear a star; ? = inconclusive. Potency is read from the fitted curve at half-maximal effect. Some of the compounds tested; the hit share may differ from the screen's.

molecule | PINK1 expr mod
CCOC(=O)c1ccc(NC(=O)CSc2nc(-c3ccc(OC)cc3)cc(C(F)(F)F)c2C#N)cc1 | 2.1%
CCOCCc1nn2c(=O)cc(COC(=O)c3cccc(C)c3)nc2s1 | -1.5%
CCOC(=O)CSc1nc2cc3c(cc2c(=O)n1CCCCCC(=O)NCc1ccc2c(c1)OCO2)OCO3 | -0.6%
CCOc1ccccc1NC(=O)Cc1coc2c(C)c(C)ccc12 | 0.3%
COc1cc(NC(=O)Cn2c(=O)n(-c3ccccc3)c(=O)c3c4c(sc32)CCCC4)cc(OC)c1 | 3.6%
O=C(COc1ccccc1F)OCc1cc(=O)n2nc(C3CCCCC3)sc2n1 | -1.6%
Cc1ccccc1CN1CCCN(CC(=O)Nc2ccc(F)cc2)S1(=O)=O | -0.3%
COC(=O)c1cc2oc3ccccc3c2n1CC(=O)Nc1ccc(OC)c(OC)c1 | 1.4%
COc1cc(CN2CCCC(c3nc(-c4ccncc4)ncc3-c3ccccc3)C2)ccc1O (stereo unspecified) | -0.2%
Cc1ccc(Cl)cc1NC(=O)C1CCN(c2nnc(C)c3c(C)n(-c4ccccc4)nc23)CC1 | -0.5%
CCOc1ccc(NC(=O)Cc2c[nH]c3ccccc23)cc1 | 0.1%
COc1ccc(-c2ccc(=O)n(CC(=O)Nc3ccc(OC)c(OC)c3)n2)cc1 | 0.0%
O=C(O)c1cc(NC2(c3ccccc3)C(=O)c3ccccc3C2=O)ccc1Cl | 3.4%
COc1ccc(C2Nc3ccc(NC(=O)CO)cc3C(=O)N2Cc2cccc(Cl)c2)cc1COc1ccc(NC(C)=O)cc1 (stereo unspecified) | 1.5%
Cc1cccc(C(=O)Nc2nc(-c3nnn(-c4cc(C)ccc4C)c3C)ns2)c1 | 0.8%
O=C(O)CCn1cnc2onc(-c3ccccc3Cl)c2c1=O | 7.9%
COc1cc2c(=O)c(S(=O)(=O)c3ccc(F)cc3)cn(Cc3ccccc3C)c2cc1OC | 3.6%
Cc1ccccc1Nc1c(-c2ccc(O)cc2)nc2c(C)cccn12 | -0.6%
CCOc1ccc(NC(=O)Cn2c(=O)n(CCCS(=O)(=O)C3CCCCC3)c(=O)c3ccccc32)cc1 | 2.6%
COc1cccc(N2CCN(C(=O)C3CCN(S(=O)(=O)c4c(C)noc4/C=C/c4ccccc4F)CC3)CC2)c1 | 1.0%

In another format: four of the compounds above
Structure: CCOCCc1nn2c(=O)cc(COC(=O)c3cccc(C)c3)nc2s1
- PINK1 expr mod: -1.5%

Structure: O=C(O)CCn1cnc2onc(-c3ccccc3Cl)c2c1=O
- PINK1 expr mod: 7.9%

Structure: Cc1cccc(C(=O)Nc2nc(-c3nnn(-c4cc(C)ccc4C)c3C)ns2)c1
- PINK1 expr mod: 0.8%

Structure: CCOC(=O)c1ccc(NC(=O)CSc2nc(-c3ccc(OC)cc3)cc(C(F)(F)F)c2C#N)cc1
- PINK1 expr mod: 2.1%

Other compounds
molecule | PINK1 expr mod
O=C(CC1C(=O)OCCN1Cc1ccccc1)Nc1cccc(Cl)c1 (stereo unspecified) | -0.5%
COc1cccc(Cn2c(NCc3ccc(C)cc3)nc3c2c(=O)n(C)c(=O)n3C)c1 | 5.7%
CCc1cccc(C)c1NC(=O)CN1C(=O)C2(SCC(=O)N2c2cc(C)cc(C)c2)c2ccccc21 (stereo unspecified) | -4.0%
Cc1cc(NC(=O)c2cc(-c3cccc(Cl)c3)on2)nn1Cc1ccc(Cl)cc1 | 0.3%
COC(=O)c1ccc(NC(=O)CCc2c(C)nn(-c3ccc(N4CCCC4)nn3)c2C)cc1 | 0.6%
CCN(Cc1ccccc1)C(=O)Cn1cc(S(=O)(=O)Cc2cccc(Cl)c2)c2ccccc21 | 0.6%
Cc1ccc(CC(=O)N(Cc2nc(-c3ccc(C)cc3)no2)C(C)C)cc1 | 1.8%
Fc1ccc(CNc2ncnc3onc(-c4ccc(F)cc4)c23)cc1 | -4.8%
CSc1nn(Cc2cccc(F)c2)c(N(C(C)=O)C(C)=O)c1S(=O)(=O)c1ccccc1 | 21%
COc1cccc(CNC(=O)c2ccc3c(c2)nnn3C2CCCC2)c1 | 1.5%
CCC1CCCCN1C(=O)Cn1c(=O)n(CC2CCC(C(=O)NC)CC2)c(=O)c2sccc21 (stereo unspecified) | 0.6%
COc1ccc(-c2cc(C)no2)cc1S(=O)(=O)N1CC(C)Oc2ccccc21 (stereo unspecified) | 1.0%
Cc1ccccc1Cn1c(SCc2ccc(C(=O)NC(C)c3ccccc3)cc2)nc2ccncc21 (stereo unspecified) | 1.7%
CCN1CCN(C(=O)c2ccc3c(c2)N(Cc2cc(C)ccc2C)C(=O)c2ccccc2S3=O)CC1 (stereo unspecified) | 0.1%
CCc1ccc(CNc2ncnc3c2nc2n3CCCC2)cc1 | ?
COc1cc(NC(=O)c2nn(-c3ccc(F)cc3)c(=O)n(C)c2=O)cc(OC)c1OC | 1.4%
CCOC(=O)c1sc(NC(=O)c2nc3ncccn3n2)c(C(=O)OC(C)C)c1C | 0.2%
COc1ccc(CNc2ncnc3onc(C)c23)cc1 | 0.9%
CCn1c(=O)c(C(=O)Nc2cc(OC)c(OC)c(OC)c2)nc2ccccc21 | 0.4%
CCC1CN(CCNC(=O)c2ccnc(Cl)c2)Cc2cc(OC)ccc2O1 (stereo unspecified) | 1.1%
COCCCNC(=O)c1[nH]c2cc(OC)ccc2c1Sc1ccc(C)cc1 | 1.0%
Cc1ccc(CCNC(=O)c2ccc(CSCc3ccccc3C)o2)cc1 | 0.6%
Cc1cc(C=Nc2ccc(/C=C/c3ccnc4ccccc34)cc2)ccc1N(C)C | -0.6%
CCCN1C(=O)c2[nH]nc(-c3ccc(F)cc3)c2C1c1ccc(O)c(OCC)c1 (stereo unspecified) | 0.7%
O=C1CN(C(=O)c2ccc(S(=O)(=O)N3CCCC3)cc2)C(c2ccccc2)c2cc(Br)ccc2N1 (stereo unspecified) | -2.4%
CCC(=O)N1CCc2cc(S(=O)(=O)CCC(=O)N3CCN(c4cccc(C)c4)C(C)C3)ccc21 (stereo unspecified) | 2.2%
Cc1ccc(C)c(N2CCN(C(=O)CN3C(=O)COc4ccc(S(=O)(=O)N5CCC(C)CC5)cc43)CC2)c1 | 0.0%
COc1cccc(OCc2nc3ccccc3n2Cc2ccccc2)c1 | 1.1%
COc1ccc2c(CNCc3cccs3)c(C(=O)O)n(Cc3ccccc3C)c2c1 | -0.3%
COc1ccc(CNC(=O)c2ccc3c(c2)CCN3S(=O)(=O)c2ccc(Cl)cc2)cc1 | 0.9%
Cc1c(C(=O)NCc2ccc(Cl)cc2)sc2nc3n(c(=O)c12)CCCC3 | 4.3%
CC(OC(=O)c1ccccc1OCCOc1ccccc1)C(=O)Nc1ccc(Br)cc1 (stereo unspecified) | 0.4%
CN(CCO)c1nc(-c2cccs2)nc2ccccc12 | -0.2%
Cc1ccc(CN(C(=O)COc2ccc(Cl)cc2C)C2CCS(=O)(=O)C2)o1 (stereo unspecified) | -0.6%
COc1cccc(NC(=O)CSC2=Nc3ccccc3C3=NC(CCC(=O)NC4CCCCC4)C(=O)N23)c1 (stereo unspecified) | 2.6%
CN1CCN(CC(=O)N2c3ccc(S(=O)(=O)NCCNC(=O)OC(C)(C)C)cc3C(=O)Nc3cccnc32)CC1 | 0.4%
Cc1ccc(Cl)cc1NC(=O)Cn1cc(S(=O)(=O)Cc2ccccc2Cl)c2ccccc21 | 5.6%
Oc1c(C(c2ccccc2F)N2CCC3(CC2)OCCO3)sc2nc(-c3ccco3)nn12 (stereo unspecified) | 0.0%
Cc1ccc(NC(=O)CSc2nc(=O)n(Cc3ccco3)c3c2CCC3)cc1F | -0.3%
CC(C)c1cc(C(=O)NC(C)c2ccccc2)no1 (stereo unspecified) | 2.2%
COc1ccc(Br)cc1CNC(=O)CCSCc1ccc(Cl)cc1 | 3.1%
COc1cccc(NC(=O)c2ccc3nc(Cc4ccccc4)oc3c2)c1 | -0.6%
CC(=O)c1cccc(NC(=O)C2CCCN(c3nnc(-n4cccc4)s3)C2)c1 (stereo unspecified) | -5.6%
CCc1ccccc1NC(=O)CN(c1ccccc1OC)S(=O)(=O)c1ccc(C)cc1 | 0.4%
O=C(CCc1ccccc1)N(Cc1cccnc1)c1nc2c(F)cc(F)cc2s1 | -0.3%
CCn1c(-c2ccccc2F)nc2cc(NC(C)=O)cc(C(=O)N3CCCCC3c3nccn3C)c21 (stereo unspecified) | 0.6%
CCC(NC(=O)Nc1cccc(C)c1)c1c(-n2cccc2)sc2c1CCN(C)C2 (stereo unspecified) | 1.9%
O=C(OCC1CCCO1)c1ccc2c(c1)N(Cc1ccccc1)C(=O)c1ccccc1S2(=O)=O (stereo unspecified) | 1.2%
CCCCNC(=O)c1ccc2c(=O)n(Cc3ccc(OC)cc3)c(=O)[nH]c2c1 | 9.1%
COc1ccc(C(=O)Nc2nc3nc(C)c(Cl)c(=O)n3[nH]2)cc1 | 0.5%
Cc1ccc(/C=C/c2onc(C)c2S(=O)(=O)N2CCC(C(=O)NCc3ccc(N(C)C)cc3)CC2)cc1 | 2.0%
O=C(Nc1cc2c(cc1C(=O)c1ccccc1)OCCO2)c1ccc(Br)cc1 | 2.0%
COCCCNS(=O)(=O)c1ccc(N2CCCCS2(=O)=O)cc1 | 1.2%
CCCn1c(SCC(O)c2ccccc2)nc2ccccc21 (stereo unspecified) | 0.1%
COc1cccc(CN2C(=O)c3ccccc3Sc3ccc(C(=O)NCc4ccccc4)cc32)c1 | -0.6%
Cc1ccc(C)c(NC(=O)C2CCCN2S(=O)(=O)c2ccc3c(c2)CCCC(=O)N3)c1 (stereo unspecified) | 1.3%
CN(C(=O)CSc1nc2ccccc2n1CC(=O)NCc1ccc(F)cc1)c1ccc(F)cc1 | 2.0%
COc1ccc(C(=O)/C=C/c2cn(CC(O)CN3CCCCCC3)c3ccccc23)cc1OC (stereo unspecified) | -0.4%
COC(=O)CNC(c1ccccc1)c1cc(Br)ccc1NC(=O)c1ccccc1 (stereo unspecified) | 0.7%
Cc1nc(SCc2nc3ccccc3[nH]2)c2oc3cc([N+](=O)[O-])ccc3c2n1 | 6.3%

Another view of 4 compounds above.
COc1ccc(C(=O)/C=C/c2cn(CC(O)CN3CCCCCC3)c3ccccc23)cc1OC (stereo unspecified)
  PINK1 expr mod = -0.4%

COC(=O)CNC(c1ccccc1)c1cc(Br)ccc1NC(=O)c1ccccc1 (stereo unspecified)
  PINK1 expr mod = 0.7%

CCn1c(-c2ccccc2F)nc2cc(NC(C)=O)cc(C(=O)N3CCCCC3c3nccn3C)c21 (stereo unspecified)
  PINK1 expr mod = 0.6%

COc1ccc(Br)cc1CNC(=O)CCSCc1ccc(Cl)cc1
  PINK1 expr mod = 3.1%

Carrying on.
molecule | PINK1 expr mod
CC1CCCc2sc3nc(SCC(=O)c4ccc(Br)cc4)nc(N)c3c21 (stereo unspecified) | 0.7%
CN(C)c1ccc(CNC(=O)c2ccc(NC(=O)N3CCCCc4ccccc43)cc2)cc1 | -0.4%
COc1cccc(NS(=O)(=O)c2ccc3[nH]cc(C(=O)N(C)C4CCCCC4)c(=O)c3c2)c1 | -0.9%
Cc1cccc(NC(=O)Cn2cc(C(=O)C3CCCCC3)c3ccccc32)c1C | -0.3%
O=C(Cn1ncc2c3ccccc3n(Cc3ccc(F)cc3)c2c1=O)NCCCN1CCCCC1 | -0.3%
Cc1ccccc1NC(=O)CSc1nc2ccc(NC(=O)c3cccs3)cc2s1 | 0.5%
Cc1ccccc1-c1noc(-c2ccc(N3CCN(C)CC3)c([N+](=O)[O-])c2)n1 | 2.9%
COc1ccc(-c2cn3c(n2)sc2cc(C(=O)NC(C)C45CC6CC(CC(C6)C4)C5)ccc23)cc1 (stereo unspecified) | 3.5%
Cc1ccc(-n2ncc(C(=O)NCc3ccccc3)c2C2CCN(C(=O)OC(C)(C)C)CC2)cc1 | -0.2%
COc1cc2c(-c3ccc(C)cc3)nc3c(c(C)nn3-c3ccccc3)c2cc1OC | -0.4%
CC(C)c1ccc(NC(=O)C2(C)Cc3ccccc3C(=O)O2)cc1 (stereo unspecified) | -0.3%
Cc1ccc(C)c(CN2C(=O)CSc3ccc(C(=O)NCc4ccccc4)cc32)c1 | 0.0%
Cc1ccc(Cl)cc1NC(=O)C1CCN(S(=O)(=O)c2cccc3nonc23)CC1 | 14%
CCCCOc1ccc(OC(=O)c2sc3ncn(Cc4cccc(F)c4)c(=O)c3c2C)cc1 | 0.9%
COc1ccccc1CCNC(=O)C(=O)NCC(c1cccs1)S(=O)(=O)c1cccs1 (stereo unspecified) | 0.8%
CCc1ccc(NC(=O)CN2C(=O)c3ccccc3Sc3ccc(C(=O)N4CCCC4)cc32)cc1 | 3.0%
CCOc1ccc(/C=C/c2nc(C#N)c(N3CCC(C)CC3)o2)cc1 | 11%
CCOc1ccccc1C1NC(c2ccc3c(c2)OCO3)=CC(c2ccccc2O)N1 (stereo unspecified) | 0.6%
COc1cc(C(=O)NCC(c2ccc(N(C)C)cc2)N2CCc3ccccc32)cc(OC)c1OC (stereo unspecified) | -1.1%
COc1cccc(-n2cc(C(=O)NCCc3cccc(C)c3)c3ccccc3c2=O)c1 | -0.3%
COc1ccc(N2CCN(S(=O)(=O)c3ccc4c(c3)C(C(C)C)C(=O)N4)CC2)cc1 (stereo unspecified) | 6.5%
O=C(Cn1nc(-c2ccc(Cl)cc2)ccc1=O)NCCc1ccccc1 | -5.5%
Cc1nc2nc(NC(=O)C(C)C)[nH]n2c(=O)c1Cc1ccccc1 | 0.7%
